Source: PubChem BioAssay (National Center for Advancing Translational Sciences (NCATS))
Vaccinia Venus: inhibitors of vaccinia virus (Venus reporter); Vaccinia virus Venus reporter expression, fluorescence; Potency, µM (doses to about 36.5 µM), for the others: at the top dose activity change, negative = inhibition, usual class: inhibitors; hit rate 0.46% among 330,000; active means well fitted inhibition curve with a large enough effect; inconclusive means small, poorly fitted or top-dose-only effect; inactive means no such curve, though single readings can be large or run the other way; tested in A549 cells; note: nearly all actives have a fitted effect of over 30% in size; inactives centre near -10
VACV mCherry inh: vaccinia inhibition (mCherry reporter); AID 720579; Potency, µM (top dose mostly 36.5 µM), for inactives: at the highest dose activity change, negative = inhibition, hits mostly inhibitors; hit rate 0.63% among 310,000; Vaccinia virus mCherry reporter infection, fluorescence; about a quarter of the inactives have no number; active = well fitted inhibition curve with a large enough effect; inconclusive = small, poorly fitted or top-dose-only effect; inactive = no such curve, though single readings can be large or run the other way; tested in A549 cells; note: nearly all actives have a fitted effect of over 35% in size; inactives centre near -10
An asterisk follows results filed as active; i = inactive; ? = inconclusive; / = not tested or not shown; & = joins results of further samples; [ ] = dose if it differs, or a comment. % is set by controls: 0 for no effect and ±100 for the full control effect; potency is the fitted concentration of half-maximal effect.

SMILES | Vaccinia Venus | VACV mCherry inh
Cc1ccccc1OCC(=O)N(Cc1ccc(C(C)C)cc1)C1CCS(=O)(=O)C1 (stereo unspecified) | -28% | -16%
COc1ccccc1-n1nnnc1SCC(=O)NC1CCCCC1 | -5% | i
CC(OC(=O)c1ccc2c(=O)n3c(nc2c1)CCCCC3)C(=O)Nc1ccc(F)cc1Cl (stereo unspecified) | -3% | -5%
COc1ccc(/C=C/C=N/NC(=O)COc2ccc(OC)cc2)cc1 | -18% | i
COC(=O)c1ccc(Cn2c(SCc3ccccc3)nc3ccncc32)cc1 | -11% | -6%
CCC(C)CNC(=O)c1cccc(OC2CCN(CC(C)(C)C)CC2)c1 (stereo unspecified) | -9% | i
Cc1ccc(C=C2C=C(c3ccccc3)OC2=O)cc1 | -22% | -16%
Cc1ncc[nH]1 | -4% | i
CCCCn1cnc2c(SCCc3ccccc3)nc(N)nc21 | -25% | -3%
CN1CCN(c2oc(-c3ccc(COc4ccccc4)o3)nc2C#N)CC1 | -2% | 1%
Cc1ccccc1OCC(=O)NCCCNC(=O)c1ccncc1 | -2% | -18%
O=S(=O)(c1ccc(Cl)cc1)n1cnc2ccccc21 | -3% | -6%
O=C(O)c1ncc(-c2ccccc2)cn1 | -9% | -11%
CC1CCc2cc(F)cc3c(O)c(C(=O)NCC4CCCO4)c(=O)n1c23 (stereo unspecified) | -24% | ?
COc1ccc(N2CCN(C(=S)Nc3cc(C)cc(C)c3)CC2)cc1 | 0% | -14%
COC(=O)C(NC(=O)c1ccc(F)cc1)(Nc1ncc(S(=O)(=O)c2ccc([N+](=O)[O-])cc2)s1)C(F)(F)F (stereo unspecified) | ? | 11µM*
CN(C)S(=O)(=O)c1cccc(NC(=O)C2Cc3ccccc3CN2C(=O)c2ccccc2)c1 (stereo unspecified) | -12% | -3%
CCOC(=O)c1nc(Nc2ccccc2CC)c2ccccc2n1 | -25% | i
O=C(Nc1ccc2c(c1)CN(Cc1ccc(CO)o1)CC2)c1ccc(C(F)(F)F)cc1 | -18% | ?
O=C1CSC(c2cccc([N+](=O)[O-])c2)N1c1ccccc1 (stereo unspecified) | -9% | 2%
Cn1c(SCC(=O)NC2CCCCCC2)nnc1-c1cccs1 | -12% | -12%
Nc1nc(-c2ccccc2)nn1C(=O)Cc1ccccc1 | -23% | ?
CC(=O)c1ccc(NC(=O)c2nc3nc(C)cc(C(F)F)n3n2)cc1 | 21% | 14%
CC(=O)c1cc2cc(O)ccc2o1 | -11% | -13%
Cc1cc(-c2ccc(C(C)C)c(S(=O)(=O)N3CCN(c4ccccc4)CC3)c2)on1 | -25% | i

Part of the list above in order of length of the SMILES, rising:
SMILES | Vaccinia Venus | VACV mCherry inh
CC(=O)c1cc2cc(O)ccc2o1 | -11% | -13%
Cc1ccc(C=C2C=C(c3ccccc3)OC2=O)cc1 | -22% | -16%
O=S(=O)(c1ccc(Cl)cc1)n1cnc2ccccc21 | -3% | -6%
COC(=O)c1ccc(Cn2c(SCc3ccccc3)nc3ccncc32)cc1 | -11% | -6%
CC(=O)c1ccc(NC(=O)c2nc3nc(C)cc(C(F)F)n3n2)cc1 | 21% | 14%
CC1CCc2cc(F)cc3c(O)c(C(=O)NCC4CCCO4)c(=O)n1c23 (stereo unspecified) | -24% | ?
CC(OC(=O)c1ccc2c(=O)n3c(nc2c1)CCCCC3)C(=O)Nc1ccc(F)cc1Cl (stereo unspecified) | -3% | -5%

The listing continues.
SMILES | Vaccinia Venus | VACV mCherry inh
CNC(=O)N(O)C1N(/N=C/c2cccnc2)C(=S)SC1(C)C (stereo unspecified) | -20% | -5%
O=S(=O)(NC1CCCCCC1)c1cccc2cccnc12 | -6% | -10%
O=C1CC(=O)Nc2cc(S(=O)(=O)NCc3cccs3)ccc2N1 | -7% | -5%
COc1cc(CN2C[C@@H](CO)O[C@@H](n3cnc4c(NCc5ccncc5)ncnc43)C2)cc(OC)c1OC | 4% | -8%
CCOc1ccc(NC(=O)CCCNC(=O)Cn2cnc3sc(C)c(C)c3c2=O)cc1 | -22% | i
O=C(CCC1CCCCC1)Nc1cccnc1 | -17% | -16%
CO[C@@H]1CN(C)C(=O)c2ccc(NS(=O)(=O)c3c(C)noc3C)cc2OC[C@@H](C)NC[C@@H]1C | -3% | -3%
Cc1cc(C)n(CCC(=O)N/N=C/c2ccccc2O)n1 | ? | ?
CN1CCN(C(=O)c2cccn(Cc3c(Cl)cccc3Cl)c2=O)CC1 | -4% | i
Cc1cccn2c(=O)c3cc(C(=O)Nc4ccc(Cl)c(Cl)c4)sc3nc12 | -2% | -6%
Cc1ccc(CN(C)C[C@H]2OCc3cnnn3CCCC(=O)N([C@@H](C)CO)C[C@@H]2C)cc1 | -16% | 3%
CC(=O)CSc1nc2ccccc2o1 | -2% | -4%
O=Cc1c(N2CCN(c3cccc(Cl)c3)CC2)nc2ccccn2c1=O | ? | -26%
Clc1ccc(-n2cc(COCc3ccccc3)nn2)cc1 | -13% | -13%
Cc1cccc(C(=O)NCC(=O)NNC(=O)c2ccccc2O)c1 | -2% | ?
COC(=O)c1c(NC(=O)Cn2nc(C(F)F)cc2C(F)F)sc(C)c1C | -25% | ?
CSC(=NS(=O)(=O)c1ccc(C)cc1)SC | -15% | i
CNC(=S)N/N=C/c1cn(CCOc2cccc(OC)c2)c2ccccc12 | ? | 4µM*
CCOCCCNC(=O)C(c1ccc(OC)cc1)N(Cc1cccs1)C(=O)CNC(C)=O (stereo unspecified) | -12%&-7% | -11%&-2%
Cc1cc(C(C)(C)C)cc(C)c1N | -4% | i
COc1ccc(Cn2ccnc2SCC(=O)Nc2ccc(F)cc2F)cc1 | -8% | ?
CCCCC1(O)CC(C(F)(F)F)=NN1C(=O)COc1ccccc1 (stereo unspecified) | -24% | -19%
CC(=O)Nc1ccc(NC(=O)C2CCCN2C(=O)NCc2ccccc2)cc1 (stereo unspecified) | 7% | -1%
Cc1ccc(-c2nn(-c3ccccc3)cc2C(=O)Nc2ccc(C)c(S(=O)(=O)N3CCOCC3)c2)cc1 | -7% | i
CC(=O)N1CCN(S(=O)(=O)c2ccc(C)cc2)C1C (stereo unspecified) | -14% | i

The results go on.
SMILES | Vaccinia Venus | VACV mCherry inh
CC(Sc1ccc(S(=O)(=O)N2CCN(C)CC2)cn1)C(=O)NC1(C#N)CCCCC1 (stereo unspecified) | -11% | -14%
CSc1cccc(N2CC(C(=O)Nc3cccc(S(=O)(=O)N4CCCC4)c3)CC2=O)c1 (stereo unspecified) | -14% | -1%
CC(C)OC(=O)/C(=C\c1ccccc1)NC(=O)c1ccccc1 | -18% | i
CCc1ccc(N2CCN(C(=O)N3CCOCC3)CC2)cc1 | -6% | -9%
Cc1cccc2c(=O)n3c(cc12)-c1[nH]c2ccccc2c1CC3 | -19% | -13%
CN(C)c1ccc(NC(=O)CSc2n[nH]c(-c3ccco3)n2)cc1 | -8% | -1%
COc1ccc(-c2nc3c(c(SCC(=O)Nc4cccc(O)c4)n2)Cc2c(CO)cnc(C)c2O3)cc1 | -9% | -5%
O=C(Cc1c(C(=O)O)[nH]c2ccccc12)NCCN1CCN(c2cccc(Cl)c2)CC1 | -8% | /
O=C(CCCCC(=O)OC1CCCCC1)OC1CCCCC1 | 3% | -13%
C/C(Cn1nnc([N+](=O)[O-])n1)=N\NC(=O)c1ccc(Cl)c(Cl)c1 | ? | ?
COc1ccc2c(c1)c(C(=O)CN1CCN(C)CC1)c(C)n2Cc1ccccc1 | ? | /
O=C(CCNC(=O)c1ccc(Br)cc1)Nc1ccccc1N1CCCCC1 | -12% | -22%
O=S(=O)(NC1c2cccc3cccc(c23)C1Sc1ncccn1)c1ccc(Cl)cc1 (stereo unspecified) | ? | ?
CC(C)c1ccc(-c2nnn(CCC(=O)O)n2)cc1 | 4% | -7%
CCOc1ccc(NC(=O)CN2CCN(c3ccc(F)cc3)CC2)cc1S(=O)(=O)N1CCCC1 | -18% | -23%
O=C(O)c1cccc(N2CCCC2)c1 | 3% | -7%
O=C(O)C1C2CC3OC(=O)C1C3C2 (stereo unspecified) | -2% | -11%
O=C(Nc1c(C(=O)c2ccccc2)oc2ccccc12)c1cc(-c2ccccc2O)n[nH]1 | ? | ?
O=c1c(C(c2ccc(Br)cc2)c2c(O)nc3n(c2=O)CCCS3)c(O)nc2n1CCCS2 | 13% | i
Cc1ccc(OCCCNCCO)c(Br)c1 | ? | ?
COCCNc1cc(N2CCN(C3CCCCC3)CC2)c2noc3c2c1C(=O)c1ccccc1-3 | 120%[activator] | 14%
CCOc1ccc(C2CC(c3cccc(OC)c3)Nc3nc(N)nn32)cc1 (stereo unspecified) | -5% | -2%
O=c1cc(C(F)(F)F)c2sc(N3CCCCC3)nc2[nH]1 | -8% | i
Cc1ccc(N(C)C(=O)Cn2cc(S(=O)(=O)N3CCCC3)c(S(=O)(=O)N3CCCC3)c2)cc1 | 4% | 0%
Cc1ccc(C)c(C(=O)N2CCC(c3nc4c(nnn4Cc4ccccc4)c(=O)[nH]3)CC2)c1 | -9% | -9%

Full records, quoted from the list. Order of screens: Vaccinia Venus | VACV mCherry inh
Cc1ccc(OCCCNCCO)c(Br)c1 in the list: ? | ?
O=C(CCCCC(=O)OC1CCCCC1)OC1CCCCC1 in the list: 3% | -13%
CC(Sc1ccc(S(=O)(=O)N2CCN(C)CC2)cn1)C(=O)NC1(C#N)CCCCC1 (stereo unspecified) in the list: -11% | -14%

(further entries)
SMILES | Vaccinia Venus | VACV mCherry inh
Cc1cccc(NC(=O)CSc2nccn2-c2cccc(Cl)c2)c1C | -4% | -15%
CC(C)/C=C(/C(=O)c1ccc(Cl)cc1Cl)n1cncn1 | -22% | i
Cc1ccc(N(CC(=O)NC(C)(C)C)C(=O)CCC(=O)Nc2ccccn2)c(C)c1 | -9% | i
COc1ccc(-n2ncc(C(=O)NCc3ccco3)c2C2CCN(C(=O)OC(C)(C)C)CC2)cc1 | -7% | -14%
O=C(Cc1ccccc1)N1CCc2ccccc21 | -5% | -11%
CCn1c(C(=O)Nc2ccc(C)cc2C)cc2sc(Cl)cc21 | -7% | 6%
Cc1cc(NC2CCCC2)n2nc(C)c(-c3ccccc3)c2n1 | -25% | i
CCn1ccc2cc(S(=O)(=O)N3CCCN(C(=O)Nc4cc(Cl)ccc4C)CC3)ccc21 | 10% | -5%
COC(=O)c1cn(C(=O)c2cccc(C)c2)c2ccccc12 | -15% | -5%
O=C(CCSc1ccc(Cl)cc1)NCc1ccccn1 | 0% | -15%
CC(C)=CC(=O)Nc1nnc(-c2ccccc2)s1 | 0% | -5%
COc1cccc(C(=O)NCc2ccccc2OC)c1 | -18% | i
CCN(CC)c1ccc2cc(C#N)c(=O)oc2c1 | -2% | -7%
C[C@]12c3[nH]c4ccccc4c3CCN1C(=O)C(CC(=O)NCc1cccc(C(F)(F)F)c1)C[C@@H]2C(=O)N1CCCCC1 (stereo partly specified) | -7% | ?
O=C(NCCC1CCCCN1S(=O)(=O)c1ccc(F)cc1)C(=O)NCc1ccncc1 (stereo unspecified) | -11% | -20%
CC1CC(C)CN(C(=O)CSc2nc(N)cc(=O)[nH]2)C1 (stereo unspecified) | -2% | -22%
Cc1cccn2c(=O)c(/C=N/O)c(N3CCOCC3)nc12 | -11% | -13%
Cc1ccc(C)c(N2C(=O)N(Cc3ccccc3C)c3ccccc3S2(=O)=O)c1 | -12% | 0%
CCCCOc1ccc(C(=O)N2CCN(c3ccc(N4CCOCC4)nn3)CC2)cc1 | -20% | -29%
COc1ccc(Cl)cc1S(=O)(=O)NC1CC(C)(C)NC(C)(C)C1 | -8% | -5%
CCOC(=O)C1CCN(C(=O)CSc2c3c(nc4ccc(Cl)cc24)CCCC3)CC1 | -2%[7.34 µM] | -3%[7.34 µM]
C/C(=N\NC(=S)NC(C)C)c1cccc([N+](=O)[O-])c1 | -24% | -29%
CCOc1ccc(S(=O)(=O)N(C(=O)c2ccncc2)c2ccc3oc(C)c(C(=O)OC)c3c2)cc1 | -27%[7.34 µM] | -25%[7.34 µM]
FC(F)Oc1ccc(NC(=S)NCCc2ccccn2)cc1 | 7% | -1%
c1ccc(COc2ncnc3c2ncn3CCCNC2CCN(Cc3ccccc3)CC2)cc1 | ? | -30%

Following part:
SMILES | Vaccinia Venus | VACV mCherry inh
CCCc1[nH]n(-c2ccc([N+](=O)[O-])cc2)c(=O)c1C(C)=NCc1ccncc1 | -18% | -29%
O=C(CN1C(=O)NC2(CCc3ccccc32)C1=O)c1ccc(F)cc1 (stereo unspecified) | -20% | i
CCc1nn(CC(=O)N2CCCCC2)c(=O)c2cc3sccc3n12 | 3% | 5%
CC1CCCCN1Cc1nc2c(c(=O)n(C)c(=O)n2C)n1CCCc1ccccc1 (stereo unspecified) | -12% | -8%
Cc1ccc(-c2nnc3ccccc3c2C(=O)Nc2cccc(C(F)(F)F)c2)cc1 | -8% | -7%
CSc1ccccc1-c1cnc2cccnn12 | -4% | -2%
COC(=O)c1ccccc1NC(=O)Nc1nnc(N2CCCCC2C)s1 (stereo unspecified) | -7% | ?
CCOC(=O)c1cc(-c2ccccc2)n(CC(=O)N2CCCC2)c1C | 7% | -14%
CSc1ccc(CN(C)CC(=O)NCc2ccc(F)cc2)cc1 | -9% | -12%
CCOC(=O)c1cccc(NC(=O)c2cc(S(=O)(=O)N3CCCCCC3)cn2C)c1 | -7% | -10%
CCOCCCNC(=O)C1(O)c2cc(Br)ccc2NC(=O)N1c1ccc(CC)cc1 (stereo unspecified) | -13% | -1%
Cc1ccc2c(c1)C1CN(C)CCC1N2C(=O)c1ccco1 (stereo unspecified) | -3% | -25%
COCc1cc(C)nc2sc3c(=O)n(-c4cccc5ccccc45)nnc3c12 | 1% | -2%
